Yeast UUG start: yeast start codon fidelity modulation | S. cerevisiae UUG-firefly luciferase reporter, luminescence/redox ratio | activity score, % at 18.7 µM | hit rate 0.13% among 350,000;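 active means replicate mean at a twofold rise or more, about +100% in these data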;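 further: firefly luciferase made from a UUG start codon reports start codon fidelity; reporter light over untreated wells divided by growth signal over untreated wells; some hits fall short of that in this replicate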
Env fusion inh: HIV envelope-mediated fusion inhibition. inhibition, % at 12.3 µM. HeLa-JRFL Env/CEM21 cell fusion, luciferase. hit rate 1.1% among 360,000;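 active means mean replicate inhibition score of at least 50 and every replicate individually at or above 50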;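 further: 0% = plate neutral controls and 100% = maraviroc near 300 nM; one replicate is shown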
PABP polyA inh: blocks human PABP binding to poly(A) RNA; fluorescence polarization; inhibition, % at 35 µM; hit rate 1% among 290,000;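 active means 50% or more with normal probe brightness, or confirmed in later tests; about a fifth of its hits are not listed in these tables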;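 further: calls also rest on retests at 20 µM and on dose response follow-up; controls were probe without protein and protein plus probe with vehicle; some compounds called inactive have numbers as strong as hits; many hits fall short of the cut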
Target sequence (P11940 whole entry, looked up): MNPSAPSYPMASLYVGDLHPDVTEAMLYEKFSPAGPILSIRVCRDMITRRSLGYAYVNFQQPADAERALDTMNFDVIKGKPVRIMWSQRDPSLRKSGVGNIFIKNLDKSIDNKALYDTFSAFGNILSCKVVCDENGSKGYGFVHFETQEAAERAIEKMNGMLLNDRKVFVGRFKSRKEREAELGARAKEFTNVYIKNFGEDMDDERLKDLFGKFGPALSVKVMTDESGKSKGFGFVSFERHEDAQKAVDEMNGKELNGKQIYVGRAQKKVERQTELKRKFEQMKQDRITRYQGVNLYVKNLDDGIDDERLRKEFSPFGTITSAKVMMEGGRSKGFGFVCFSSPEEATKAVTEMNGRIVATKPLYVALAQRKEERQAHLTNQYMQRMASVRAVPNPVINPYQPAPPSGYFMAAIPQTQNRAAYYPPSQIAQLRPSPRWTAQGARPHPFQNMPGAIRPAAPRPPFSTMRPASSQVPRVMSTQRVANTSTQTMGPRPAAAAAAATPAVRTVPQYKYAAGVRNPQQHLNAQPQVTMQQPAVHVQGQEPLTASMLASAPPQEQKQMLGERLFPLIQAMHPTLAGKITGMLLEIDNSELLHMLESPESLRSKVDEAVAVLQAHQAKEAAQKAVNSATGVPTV
Rce1 inh: inhibitors of yeast Ras-converting enzyme; yeast membranes, quenched prenylated peptide cleavage fluorescence; calls only; hit rate 0.27% among 290,000;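 active means fall in fluorescence gain of 50% or more versus controls, with final raw signal at or below 3038400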;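 further: plate controls were neutral control wells for no effect and wells lacking membranes for full effect; tested at 10 µM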
Target sequence (Q03530 whole entry, looked up): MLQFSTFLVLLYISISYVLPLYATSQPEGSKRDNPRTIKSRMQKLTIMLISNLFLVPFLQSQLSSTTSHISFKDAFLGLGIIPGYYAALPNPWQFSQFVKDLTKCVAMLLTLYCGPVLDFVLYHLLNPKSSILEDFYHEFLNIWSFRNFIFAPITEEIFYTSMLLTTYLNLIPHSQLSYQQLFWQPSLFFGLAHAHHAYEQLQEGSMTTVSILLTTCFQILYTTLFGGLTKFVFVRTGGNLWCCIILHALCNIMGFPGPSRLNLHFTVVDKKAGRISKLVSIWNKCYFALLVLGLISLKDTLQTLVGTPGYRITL
eIF4H inh: inhibitors of RNA binding by human eIF4H. Q15056. eIF4H fluorescence polarization binding assay. inhibition, % at 35 µM. hit rate 0.94% among 290,000;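 active means 50% or more with normal probe brightness, or confirmed in later tests; about a fifth of its hits are not listed in these tables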;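 further: calls also rest on retests at 20 µM and on dose response follow-up; 0% = protein and probe with vehicle and 100% = probe without protein; strong numbers were not always called active; many hits fall short of the cut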
CSC inhib: blocks cancer stem cells | cancer stem cell-like cells viability, luminescence | inhibition, % at 7.5 µM | hit rate 1.1% among 300,000 | AID 2717;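 active means mean at 75% or more and at least half the replicates too; tested in HMLE shEcad cells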;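 further: 0% = median of negative and 100% = median of positive control wells; the first replicate is given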
MT1-MMP act inh: MT1-MMP (human) activation inhibition; HT1080 RFP-PRO-GFP cells, GFP/RFP ratio fluorescence, overnight; percent of plate control window, DMSO zero; P50281; GFP/RFP ratio change, % at 20 µM; hit rate 0.061% among 360,000;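 active means GFP/RFP ratio change of at least 30% with cell ATP level not reduced by more than half and red fluorescence within 50% of control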; further: strong numbers were not always called active
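Assay system – RFP-PRO-GFP reporter HT1080 cells · Compound dosing – single dose of 20 µM compound, 1% DMSO final · Incubation – overnight compound exposure at 37 °C · Measure – GFP/RFP fluorescence ratio · Benchmarks – DMSO wells and RFP-L50D-GFP cells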
eIF4H inh retest: recorded beside eIF4H inh, whose call it bears; inhibition, %; compound at 20 µM; confirmation average;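 mean of two retest wells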
PABP polyA inh retest: also measured in PABP polyA inh; calls as there; inhibition, %; compound at 20 µM; confirmation repeats;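 mean of two retest wells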
MT1-MMP act inh RFP: recorded beside MT1-MMP act inh, whose call it bears; RFP signal change, %; measured here: RFP expression control read;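 0 = vehicle wells; hits needed this value within 50% of zero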
The depositor's hits bear a star; i = inactive; / = not tested or not shown. Only part of the results is shown (hit frequency here may not be typical).

SMILES	Yeast UUG start	Env fusion inh	PABP polyA inh	Rce1 inh	eIF4H inh	CSC inhib	MT1-MMP act inh	MT1-MMP act inh RFP	others
CC(=O)NC12CC3CC(C1)CC(C(=O)Nc1nc4c(C)cccc4s1)(C3)C2	-10	/	1	i	-4	11	-4	-8
Cc1cccn2c(=O)c3cc(C(=O)NCC4CCCO4)c(=N)n(CC4CCCO4)c3nc12 (configuration not stated)	-15	-11	-19	/	-17	9	3	0
Cc1ccc(S(=O)(=O)Nc2nc(N)n(-c3ccccc3)n2)cc1	/	6	-3	i	6	-14	1	5
COc1ccc(N2CC(C(=O)NCCN3C(=O)S/C(=C\c4cccnc4)C3=O)CC2=O)c(OC)c1 (configuration not stated)	-32	-36	/	i	/	-9	0	5
O=C(CSc1nnnn1-c1ccccc1)NC1CCCc2ccccc21 (configuration not stated)	/	-13	-14	i	-1	/	0	2
O=c1[nH]cnc2cc(-c3ccccc3)sc12	-26	26	1	i	9	-4	6	2
Cc1cccc(NC(=O)CCC2CCN(C(=O)c3ccc(C)s3)CC2)c1	/	-5	2	i	-13	15	-3	-3
O=C(Cc1ccc(Cl)cc1)N1CCN(c2ccccc2)CC1	-19	8	-9	i	2	-3	-2	-5
C=CC[C@H](CC(=O)N(CCO)Cc1ccccc1)C(=O)N[C@H](COC(=O)[C@@H](CC=C)Cc1ccc(F)cc1)C(C)(C)C	-1	12	/	/	/	/	-13	-13
O=S(=O)(Nc1ncccn1)c1ccc(NC(=S)Nc2cccc(Cl)c2)cc1	/	/	15	i	33	-13	/	/
CCSC1=NCCN1S(=O)(=O)c1ccc2ccccc2c1	/	-6	10	i	6	-1	-2	3
COc1ccc(/C(O)=C2/C(=O)C(=O)N(CCCC(=O)O)C2c2ccc(OC)cc2)cc1 (configuration not stated)	-24	/	10	i	2	-13	-5	1
CCC(=O)NC(C)C(c1cccs1)N1CCN(c2ccccc2)CC1 (configuration not stated)	9	/	20	i	-1	/	5	0
COC(=O)c1ccc(CN2CCCC(CO)(Cc3ccccc3F)C2)cc1 (configuration not stated)	0	2	20	i	1	11	-1	-2
Nc1nc(Nc2ccc(Cl)cc2)nc2ccccc12	-61	i	11	i	-4	-3	37	-4
Cc1cc(NC(=O)CSc2nnc(C3COc4ccccc4O3)o2)no1 (configuration not stated)	-1	/	0	i	-5	8	0	1
CCN(CC(=O)N1CCN(Cc2ccccc2)CC1)S(=O)(=O)c1ccc(F)cc1	-10	14	-2	i	10	-1	-3	-7
CC1CCCN(C(=O)c2ccncc2)C1 (configuration not stated)	-1	-84	-1	i	2	-10	3	1
COc1ccc(S(=O)(=O)N2CCCCC2)cc1NC(=O)Cc1ccsc1	-10	4	/	/	/	-15	-2	-3
Cc1cc(-c2csc(Nc3ccccn3)n2)ccc1F	-23	-123	-2	i	-7	36	-1	-17
Cc1nonc1C(=O)N/N=C/c1ccc(O)cc1O	-25	0	-2	i	9	18	-5	-8
CN1C(=O)/C(=C/c2ccc(C(=O)Nc3ccc(O)cc3C(=O)O)cc2)SC1=S	-18	-4	29	i	-2	-26	2	3
Cn1nc(C(=O)NCc2ccc(F)cc2)c2c1-c1ccccc1S(=O)(=O)C2	-24	7	4	i	-1	-17	3	5
C=C(C)CN1C(=O)C2(OCCO2)c2ccccc21	-31	2	0	i	1	-4	0	2
CCCCNC(=S)N1CCn2cccc2C1c1ccccc1 (configuration not stated)	-6	40	-5	i	6	-4	5	-2

4 compounds picked at random from the list so far:
SMILES	Yeast UUG start	Env fusion inh	PABP polyA inh	Rce1 inh	eIF4H inh	CSC inhib	MT1-MMP act inh	MT1-MMP act inh RFP	others
Cc1cc(NC(=O)CSc2nnc(C3COc4ccccc4O3)o2)no1 (configuration not stated)	-1	/	0	i	-5	8	0	1
C=C(C)CN1C(=O)C2(OCCO2)c2ccccc21	-31	2	0	i	1	-4	0	2
Cc1ccc(S(=O)(=O)Nc2nc(N)n(-c3ccccc3)n2)cc1	/	6	-3	i	6	-14	1	5
CCCCNC(=S)N1CCn2cccc2C1c1ccccc1 (configuration not stated)	-6	40	-5	i	6	-4	5	-2

Next section.
SMILES	Yeast UUG start	Env fusion inh	PABP polyA inh	Rce1 inh	eIF4H inh	CSC inhib	MT1-MMP act inh	MT1-MMP act inh RFP	others
CCC1Oc2ccc(C)cc2N(CC(=O)NCCCN2CCOCC2)C1=O (configuration not stated)	-7	5	-6	i	-7	/	-2	2
O=C(NCc1cccnc1)Nc1cccc(Cl)c1	-8	-10	-4	i	-7	-17	0	-4
C=CCOc1cccc(CNc2cccc(C(=O)O)c2)c1	-25	-6	-12	i	3	/	1	5
CC(C)=C1C2CCC1C1C(=O)N(c3nc(-c4ccccc4)c(C)s3)C(=O)C21 (configuration not stated)	3	-9	1	i	2	4	-4	-1
CN=CC1=C(O)c2ccccc2C1=O	-23	-16	2	i	-11	-6	5	3
NC(=O)C1CCN(C(=O)C2CC(=O)N(c3ccc4c(c3)OCCO4)C2)CC1 (configuration not stated)	-3	/	/	/	/	-14	-3	-2
CC1N(O)C(c2ccc(Cl)cc2Cl)N(O)C1(C)C (configuration not stated)	-6	/	-2	i	-3	-12	-2	1
COc1ccc(-c2nn(-c3ccccc3C)cc2CNC(C)Cn2cncn2)cc1F (configuration not stated)	/	13	-3	i	-10	7	1	2
COC(=O)c1c(NC(=O)CSc2nnc(-c3ccco3)n2C)sc(C)c1C	/	-15	9	i	-5	1	-1	2
CCC(=O)N(Cc1cc2cc(OC)ccc2[nH]c1=O)c1cccc(C)c1	3	-252	3	i	7	-14	3	0
CCOc1ccc(-n2c(C)cc(C(=O)CCl)c2C)cc1	-17	-66	-6	i	-1	17	-2	-1
COc1ccc(NS(=O)(=O)c2cccc(C(=O)NNC(=O)c3ccc(NC(C)=O)cc3)c2)cc1	-3	0	/	i	/	/	-1	-1
O=C(Nc1cccc2ccccc12)c1nn(C23CC4CC(CC(C4)C2)C3)cc1[N+](=O)[O-]	-2	/	8	i	0	4	-15	-12
COc1cc(C2NCCC(=O)C2(C)C)cc(OC)c1OC (configuration not stated)	/	/	24	i	-2	-10	8	11
O=c1[nH]c(=O)c2nc3c4ccccc4c4ccccc4c3nc2[nH]1	/	-58	-3	i	74	16	-7	-11	eIF4H inh retest=25;PABP polyA inh retest=34
Cc1cccc(-c2ccc3c(c2)C2CC3CCN2C(=O)OCc2ccccc2)c1 (configuration not stated)	-30	20	/	/	/	/	-3	-3
Cc1ccc(C(=O)NCC2(c3ccccc3)CCCC2)cc1	-1	/	-4	i	-5	42	-2	-10
O=C(C1CCCN1S(=O)(=O)c1ccc(Cl)cc1)N1CCCCC1 (configuration not stated)	-7	-8	-8	i	10	-9	-4	-3
O=C(CSc1ccc2nnc(-c3ccncc3)n2n1)NCC1CCCO1 (configuration not stated)	-9	-14	-12	i	2	-6	-1	2
Cc1c(C(=O)NC2CCCc3ccccc32)cccc1[N+](=O)[O-] (configuration not stated)	-2	12	9	i	3	-8	5	0
O=C(NC(=O)c1cccc(OC(F)(F)C(F)F)c1)OC1CCS(=O)(=O)C1 (configuration not stated)	7	-51	-9	i	-7	-17	-1	-7
Cc1cc(OCC(=O)N(Cc2ccccc2)C2CCS(=O)(=O)C2)ccc1Cl (configuration not stated)	/	5	1	i	-1	-22	-2	1
CC(C)n1cnnc1SCC(=O)Nc1cccc(S(=O)(=O)N(C)c2ccccc2)c1	-9	5	5	i	-11	-2	7	0
Cc1cc(C)c(C)c(OCC(=O)NCC2CCCO2)c1 (configuration not stated)	-15	-24	5	i	-4	0	-4	-12
COCCN(C(=O)COC(=O)c1ccc(C=O)cc1)c1c(N)n(Cc2ccccc2)c(=O)[nH]c1=O	-7	58*	-2	i	-3	-5	0	6
SMILES	Yeast UUG start	Env fusion inh	PABP polyA inh	Rce1 inh	eIF4H inh	CSC inhib	MT1-MMP act inh	MT1-MMP act inh RFP	others
O=C(COc1ccccc1Cl)c1ccc2c(c1)CCCC2	/	/	0	i	-7	/	-2	-1
O=C(C(Cc1ccc(Cl)cc1)NS(=O)(=O)c1ccccc1)N1CC[C@@]2(O)CCCC[C@H]2C1 (some centres not stated)	29	/	-1	i	-13	1	-1	3
CC1CCCC(C)N1C(=O)CN1C(=O)c2ccccc2S1(=O)=O (configuration not stated)	-11	-5	/	/	/	/	0	-1
CCN1CCN(C(C(=O)NC2CCCC2)c2ccc(Cl)cc2)CC1 (configuration not stated)	-5	-11	11	i	-1	-5	-4	-3
CCCCn1nnc(NC(=S)NC(=O)c2ccc(-c3cccc(Cl)c3Cl)o2)n1	/	/	5	i	-6	36	0	2
COC(=O)[C@H](CCSC)NC(=O)NCCC1=CCCCC1	-2	-9	-10	i	-9	/	2	1
CC(=O)Oc1c(Cl)cc(N(C(C)=O)S(=O)(=O)c2ccccc2)c2ccccc12	6	-20	/	i	/	12	-22	-9
COc1ccc(S(=O)(=O)Nc2ccc(F)c(Cl)c2)cc1OC	-16	/	-6	i	-6	-9	1	-8
COC(=O)c1ccc(OC(=O)CCS(=O)(=O)c2ccc(C)cc2)cc1	-12	11	/	i	/	-9	1	3
O=S(=O)(Nc1cccc(CCc2ccccn2)c1)c1ccc(Cl)cc1	/	29	4	/	6	9	1	-13
CN(C)C(=O)CSc1nnc(CCCCCNC(=O)OC(C)(C)C)o1	-14	-151	-4	i	-10	14	-1	-3
CSc1nsc(SC)c1C(=O)Nc1ccc(C(C)(C)C)cc1	/	6	1	i	7	31	0	-2
CC(C)(C)C1(O)CC(C(F)(F)F)=NN1C(=O)CCc1ccccc1 (configuration not stated)	/	-2	-5	i	8	2	-1	4
CC(C)CN(C(=O)c1cc([N+](=O)[O-])cc([N+](=O)[O-])c1)C1CCS(=O)(=O)C1 (configuration not stated)	1	/	/	i	/	-2	0	2
CCOC(=O)c1cccc(N2C(=O)C3C(C2=O)C2C=CC3C23CC3)c1 (configuration not stated)	-31	/	10	i	4	/	5	-1
O=c1nc(-c2ccccc2)c2cc(Br)ccc2[nH]1	-2	-7	6	i	-2	-4	5	-2
Cc1ccccc1N1Cc2ccccc2C1=O	0	-6	/	/	/	/	3	4
COC(=O)c1sccc1-n1cccc1C(=O)C(=O)N1CCCCC1	-10	/	-10	i	-15	8	7	13
CCc1ccc(CNC(=O)CCCn2c(=O)c3cccn3c3cccnc32)cc1	-22	1	4	i	-14	19	2	1
c1ccc2[nH]c(CN3CCCCCC3)nc2c1	-15	/	3	i	0	-13	7	4
c1ccc2[nH]c(SCCN3CCOCC3)nc2c1	-16	/	-2	i	0	-2	5	7
O=C(Nc1ccccc1N1CCCC1)c1ccc(N2CCCC2=O)cc1	-9	-4	/	i	/	-4	2	0
COc1ccc(-n2c(C)nc3c(cnn3-c3ccc(C)c(C)c3)c2=O)cc1	-20	-34	3	i	20	10	0	-12
O=C(Nc1ccc2c(c1)CCC2)c1ccc(F)cc1	-25	-170	0	i	-5	12	3	-1
O=C(NCc1ccccc1F)C1CCCN(c2cnccn2)C1 (configuration not stated)	-14	7	5	i	5	16	-1	1
O=C(COc1c(F)c(F)cc(F)c1F)NNC(=O)CC1CCS(=O)(=O)C1 (configuration not stated)	1	-13	/	/	/	-5	2	2
O=C(NCC1CCCO1)c1ccc([N+](=O)[O-])o1 (configuration not stated)	2	/	-2	i	-2	1	6	2
Cn1c(=O)c2cc3ccc(Cl)cc3nc2n(C)c1=O	4	-7	4	i	-3	-5	3	0

Already shown: 2 of the compounds above.
SMILES	Yeast UUG start	Env fusion inh	PABP polyA inh	Rce1 inh	eIF4H inh	CSC inhib	MT1-MMP act inh	MT1-MMP act inh RFP	others
O=C(NCC1CCCO1)c1ccc([N+](=O)[O-])o1 (configuration not stated)	2	/	-2	i	-2	1	6	2
Cn1c(=O)c2cc3ccc(Cl)cc3nc2n(C)c1=O	4	-7	4	i	-3	-5	3	0

Screening results as filed in PubChem BioAssay.
